Screening data deposited in PubChem BioAssay by Broad Institute.
Vaccinia stage: Vaccinia orthopox stage-specific inhibition; Vaccinia-infected cells, mCherry/Venus stage reporter fluorescence; hits give low values; some inactives read as strong as hits; activity change (mCherry), % (test concentration not listed); hit rate 0.01% among 89,000;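 active means mCherry past -33% and 40 or more points under the early reporter, replicates agreeing; inconclusive means past -33% without that gap or agreement; tested in A549 cells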;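 further: scaled between vehicle wells and reference inhibitor wells; 23 nL library stock went into each well; one replicate is shown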
Vaccinia stage Venus: also measured in Vaccinia stage; calls as there; activity change (Venus), %; measured here: Venus reporter, other viral stage;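 negative = less Venus signal; first of two replicates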
The depositor's hits bear a star; ? = inconclusive; . = no result given; & = joins results of further samples.

SMILES | Vaccinia stage | Vaccinia stage Venus
COc1cccc(S(=O)(=O)N2CCCCN3[C@H](CO)[C@@H](c4ccc(-c5ccccc5)cc4)[C@@H]3C2)c1 | 5.0 | -1.7
CCS(=O)(=O)N1CCC2(CC1)CN(C(=O)Nc1cccc(F)c1)[C@H](CO)c1c2c2ccc(OC)cc2n1C | ? | .
C[C@H](CO)N1C[C@H](C)[C@H](CN(C)S(=O)(=O)c2ccc(F)cc2)OCc2ccccc2-c2c(n(C)c3ccccc23)C1=O | ? | .
C[C@H](CO)N1C[C@H](C)[C@H](CN(C)S(=O)(=O)c2cccs2)Oc2ccc(NS(=O)(=O)c3ccc(F)cc3)cc2C1=O | -22.9 | -24.1
N#C[C@H]1[C@@H](c2ccccc2)[C@@H](CO)N1C(=O)Nc1cccc(F)c1 | 12.9 | 8.8
CCCC(=O)Nc1ccc2c(c1)C(=O)N(C)[C@H]1CC[C@@H](CC(=O)O)O[C@@H]1CO2 | -12.4 | -10.1
C[C@@H]1CN([C@@H](C)CO)C(=O)c2cc(NS(C)(=O)=O)ccc2O[C@H]1CN(C)S(=O)(=O)c1cn(C)cn1 | 22.5 | 10.3
O=C(NCC[C@H]1CC[C@H](NC(=O)C2CCCCC2)[C@@H](CO)O1)c1ccc(F)cc1 | -9.8 | 3.2
O=C(Cc1ccccc1)N[C@H]1C=C[C@H](CC(=O)N2CCOCC2)O[C@@H]1CO | -8.4 | -8.2
C[C@@H]1CN([C@@H](C)CO)C(=O)Cc2cc(NC(=O)c3ccncc3)ccc2O[C@@H]1CN(C)S(C)(=O)=O | -0.2 | 1.6
Cc1noc(C)c1NC(=O)N(C)C[C@@H]1OCCCC[C@H](C)Oc2ccc(NC(=O)NC(C)C)cc2C(=O)N([C@H](C)CO)C[C@@H]1C | -2.2 | -1.4
C[C@H]1CN([C@@H](C)CO)C(=O)c2cccc(NC(=O)c3ccc(-c4nccs4)cc3)c2O[C@H]1CN(C)S(=O)(=O)c1cccs1 | -2.5 | -8.5
C/C=C/c1ccc2c(c1)O[C@H](CN(C)C(=O)Nc1ccc(F)cc1)[C@H](C)CN([C@H](C)CO)S2(=O)=O | -16.5 | -8.2
COCCNC(=O)C[C@H]1CC[C@H]2[C@@H](COc3ccc(NC(=O)Nc4cccc(F)c4)cc3C(=O)N2C)O1 | 27.4 | 7.8
C[C@@H]1CN([C@H](C)CO)C(=O)c2cc(Br)cnc2O[C@@H]1CN(C)C(=O)Cc1ccccc1 | 29.3 | 10.3
C[C@H]1CN([C@@H](C)CO)C(=O)c2cc(C#Cc3ccc(F)cc3)cnc2O[C@@H]1CN(C)S(C)(=O)=O | 5.9 | 3.1
C[C@H](CO)N1C[C@H](C)[C@@H](CN(C)S(=O)(=O)c2cn(C)cn2)OCCCC[C@H](C)Oc2ccc(NS(C)(=O)=O)cc2C1=O | 4.8 | -6.1
CCCC(=O)Nc1ccc2c(c1)OC[C@H](C)N(C(=O)CC)C[C@@H](C)[C@@H](OC)CN(C)C2=O | 5.3 | 6.5
CO[C@H]1CN(C)C(=O)c2cc(NS(C)(=O)=O)ccc2OC[C@H](C)N(C(=O)CN(C)C)C[C@H]1C | -3.0 | 0.7
CO[C@@H]1CN(C)C(=O)c2cc(NC(C)=O)ccc2OC[C@H](C)N(C(=O)C2CCOCC2)C[C@H]1C | 25.4 | 21.1
COc1cccc(-c2ccc([C@@H]3[C@@H](CO)N(C(=O)C4CC4)C34CN(C(C)=O)C4)cc2)c1 | 4.0 | 5.0
C[C@@H](NC(=O)C[C@@H]1C[C@H]2c3cc(NC(=O)C4CCC4)ccc3O[C@H]2[C@@H](CO)O1)c1ccccc1 | 5.6 | 4.0
COCC(=O)Nc1ccc2c(c1)OC[C@H](C)N(Cc1cccc(F)c1)C[C@H](C)[C@H](OC)CN(C)C2=O | -5.7 | -3.0
C[C@H](CO)N1C[C@H](C)[C@H](CN(C)Cc2ccc(-c3ccccc3)cc2)Oc2ccc(NC(=O)Cc3cn(C)c4ccccc34)cc2CC1=O | -19.2 | -11.1
CC(C)NC(=O)N(C)C[C@@H]1OCc2cn(nn2)CCCC(=O)N([C@H](C)CO)C[C@H]1C | -0.8 | 4.2
O=C(Nc1cccc(F)c1)N1C[C@@H]2[C@H](c3ccccc31)[C@H](CO)N2C(=O)c1cccnc1 | 3.1 | 11.2
CC(C)NC(=O)N1CCCCN2[C@H](CO)[C@@H](c3ccc(C#Cc4ccccc4)cc3)[C@H]2C1 | ? | .
O=C(C[C@@H]1CC[C@H]2[C@@H](COC[C@@H](O)CN2C(=O)c2ccc3c(c2)OCO3)O1)NC1Cc2ccccc2C1 | -10.0 | -2.2
COC(=O)c1ccc(CN2CC(=O)N3[C@H](CO)[C@H](c4ccc(Br)cc4)[C@H]3C2)cc1 | ? | .
C[C@H](CO)N1C[C@H](C)[C@@H](CN(C)C)OCc2cnnn2CCCC1=O | -1.5&18.0 | 4.6&14.4
O=C(C[C@@H]1CC[C@H]2[C@@H](COC[C@@H](O)CN2Cc2ccccc2F)O1)N[C@H]1CCN(Cc2ccccc2)C1 | -31.4 | -20.4
CC=Cc1ccc2n(c1=O)C[C@H]1[C@H](CO)[C@@H](C(=O)NCC)[C@@H]2N1Cc1nccs1 (mixture of isomers) | 2.1 | 0.6
Cc1ccc(S(=O)(=O)Nc2ccc3c(c2)C(=O)N([C@@H](C)CO)C[C@H](C)[C@H](CN(C)C(=O)Cc2ccccc2)OCCCC[C@H](C)O3)cc1 | ? | .
C[C@H]1CN([C@@H](C)CO)S(=O)(=O)c2ccc(C3=CCCCC3)cc2O[C@@H]1CN(C)C(=O)Cc1cccnc1 | -7.1 | -12.2
COc1ccc(NC(=O)N(C)C[C@@H]2Oc3c(NC(=O)Nc4ccccc4)cccc3C(=O)N([C@@H](C)CO)C[C@H]2C)cc1 | 2.1 | 3.3
C[C@@H]1CN([C@@H](C)CO)C(=O)c2cc(NC(=O)Nc3cccc4ccccc34)ccc2O[C@H]1CN(C)S(=O)(=O)c1ccc(F)cc1 | 17.1 | 3.3
O=C1CC[C@@H]2c3[nH]c4ccccc4c3CCN12 | 26.5 | 22.1
C[C@@H]1CN([C@@H](C)CO)C(=O)c2cc(NC(=O)Nc3cccc4ccccc34)ccc2O[C@H]1CN(C)S(=O)(=O)c1ccccc1 | -6.8 | -8.5
C[C@H](CO)N1C[C@H](C)[C@@H](CN(C)CC2CCCCC2)Oc2ccc(NC(=O)Cc3cn(C)c4ccccc34)cc2CC1=O | ? | .
C[C@@H]1CN([C@H](C)CO)C(=O)c2cccc(NC(=O)c3ccncc3)c2O[C@@H]1CN(C)Cc1ccccc1 | 5.4 | 8.1
COc1cccc(C#Cc2ccc3c(c2)O[C@H](CN(C)C(=O)CN2CCOCC2)[C@H](C)CN([C@H](C)CO)S3(=O)=O)c1 | ? | .
COc1ccc(NC(=O)Nc2ccc3c(c2)CC(=O)N([C@H](C)CO)C[C@H](C)[C@H](CN(C)S(C)(=O)=O)O3)cc1 | 14.8 | 11.6
COc1ccccc1CN(C)C[C@@H]1OCc2cn(nn2)CCCC(=O)N([C@H](C)CO)C[C@H]1C | 15.5 | 10.7
C[C@@H]1CN([C@@H](C)CO)C(=O)c2cc(NC(=O)Nc3cccc4ccccc34)ccc2O[C@H]1CN(C)C | 1.9 | -0.5
CC(=O)N1[C@@H]2c3ccc(-c4ccccc4F)c(=O)n3C[C@H]1[C@H](CO)[C@H]2C(=O)NC1CCC1 | 11.7 | 13.1
COc1cccc(S(=O)(=O)N[C@H]2C=C[C@H](CC(=O)NCc3ccccc3)O[C@H]2CO)c1 | 0.9 | -0.8
[N-]=[N+]=NCCNC(=O)Nc1ccccc1 | 14.2 | 10.9
Cc1noc(C)c1NC(=O)Nc1ccc2c(c1)CC(=O)N([C@H](C)CO)C[C@H](C)[C@@H](CN(C)CC1CCCCC1)O2 | -4.9 | -8.6
CCCN1[C@@H]2c3ccc(-c4ccccc4F)c(=O)n3C[C@H]1[C@H](CO)[C@H]2C(=O)NCCOC | 17.3 | 9.8
CCCNC(=O)C[C@@H]1CC[C@@H]2[C@H](COC[C@@H](O)CN2C(=O)C2CCOCC2)O1 | 5.2 | 4.8
Cc1noc(C)c1S(=O)(=O)N(C)C[C@H]1OCCCC[C@H](C)Oc2ccc(NC(=O)NC(C)C)cc2C(=O)N([C@@H](C)CO)C[C@@H]1C | 2.1 | 8.9
C[C@H](CO)N1C[C@H](C)[C@H](CN(C)Cc2ccc(Oc3ccccc3)cc2)Oc2ccc(NC(=O)Nc3ccccc3)cc2CC1=O | -18.8 | -6.0
OC[C@@H]1[C@H](c2ccc(C3=CCCC3)cc2)[C@H]2CN(Cc3cncnc3)CCCCN12 | -3.1 | -3.8
C[C@@H]1CN([C@@H](C)CO)C(=O)Cc2cc(NC(=O)NC3CCCCC3)ccc2O[C@@H]1CN(C)Cc1ccc(Cl)c(Cl)c1 | ? | .
C[C@@H]1CCCCO[C@H](CN(C)Cc2ccccc2)[C@@H](C)CN([C@H](C)CO)C(=O)c2cc(NS(=O)(=O)c3ccccc3)ccc2O1 | 14.5 | 3.4
CC(=O)N(C)C[C@@H]1Oc2cc(-c3cncnc3)ccc2S(=O)(=O)N([C@@H](C)CO)C[C@@H]1C | 6.9 | 5.3
C[C@@H]1CCCCO[C@@H](CN(C)C(=O)Nc2cccc3ccccc23)[C@H](C)CN([C@@H](C)CO)C(=O)c2cc(NS(=O)(=O)c3ccc(Cl)cc3)ccc2O1 | 9.7 | 9.8
C[C@@H]1CCCCO[C@@H](CN(C)C(=O)Nc2ccc(F)cc2)[C@H](C)CN([C@@H](C)CO)C(=O)c2cc(NC(=O)Nc3ccccc3)ccc2O1 | -6.6 | 4.8
CN(C)C(=O)c1ccc(-c2ccc([C@@H]3[C@@H](CO)N4C(=O)CN(C(=O)CC5CC5)C[C@@H]34)cc2)cc1 | 13.7 | 6.6
COc1ccccc1-c1ccc2n(c1=O)C[C@H]1[C@H](CO)[C@@H](C(=O)NCc3ccccn3)[C@@H]2N1C | 27.6 | 5.6

Quoted from the results shown for reference:
SMILES | Vaccinia stage | Vaccinia stage Venus
COc1cccc(C#Cc2ccc3c(c2)O[C@H](CN(C)C(=O)CN2CCOCC2)[C@H](C)CN([C@H](C)CO)S3(=O)=O)c1 | ? | .
COc1ccc(NC(=O)Nc2ccc3c(c2)CC(=O)N([C@H](C)CO)C[C@H](C)[C@H](CN(C)S(C)(=O)=O)O3)cc1 | 14.8 | 11.6
COc1ccccc1CN(C)C[C@@H]1OCc2cn(nn2)CCCC(=O)N([C@H](C)CO)C[C@H]1C | 15.5 | 10.7
C[C@@H]1CN([C@@H](C)CO)C(=O)c2cc(NC(=O)Nc3cccc4ccccc34)ccc2O[C@H]1CN(C)C | 1.9 | -0.5
CC(=O)N1[C@@H]2c3ccc(-c4ccccc4F)c(=O)n3C[C@H]1[C@H](CO)[C@H]2C(=O)NC1CCC1 | 11.7 | 13.1
COc1cccc(S(=O)(=O)N[C@H]2C=C[C@H](CC(=O)NCc3ccccc3)O[C@H]2CO)c1 | 0.9 | -0.8
[N-]=[N+]=NCCNC(=O)Nc1ccccc1 | 14.2 | 10.9
Cc1noc(C)c1NC(=O)Nc1ccc2c(c1)CC(=O)N([C@H](C)CO)C[C@H](C)[C@@H](CN(C)CC1CCCCC1)O2 | -4.9 | -8.6
CCCN1[C@@H]2c3ccc(-c4ccccc4F)c(=O)n3C[C@H]1[C@H](CO)[C@H]2C(=O)NCCOC | 17.3 | 9.8
CCCNC(=O)C[C@@H]1CC[C@@H]2[C@H](COC[C@@H](O)CN2C(=O)C2CCOCC2)O1 | 5.2 | 4.8

(next part)
SMILES | Vaccinia stage | Vaccinia stage Venus
CCCC(=O)Nc1ccc2c(c1)OC[C@@H](C)N(C(C)=O)C[C@H](C)[C@H](OC)CN(C)C2=O | 8.4 | 5.5
CCS(=O)(=O)Nc1ccc2c(c1)C(=O)N(C)[C@H]1CC[C@H](CC(=O)N3CCN(C)CC3)O[C@H]1CO2 | 1.2 | 2.1
COc1cccc(S(=O)(=O)Nc2ccc3c(c2)[C@H]2C[C@@H](CC(=O)NCc4ccccc4F)O[C@@H](CO)[C@H]2O3)c1 | 0.0 | 3.8
O=C(CCN1CCCCC1)N[C@@H]1CC[C@H](CCNC(=O)c2cc(Cl)cc(Cl)c2)O[C@@H]1CO | -7.2 | -5.1
COc1ccccc1-c1cn(CC[C@@H]2CC[C@H](NC(=O)C3CCOCC3)[C@@H](CO)O2)nn1 | 8.9 | 8.4
CO[C@H]1CN(C)C(=O)c2cc(NS(=O)(=O)c3cn(C)cn3)ccc2OC[C@H](C)N(Cc2cccc(F)c2)C[C@H]1C | 8.2 | 8.5
C[C@@H]1CN([C@@H](C)CO)C(=O)c2cc(NS(=O)(=O)c3ccccc3)ccc2O[C@@H](C)CCCCO[C@@H]1CN(C)C | 2.5 | -2.0
CC(C)NC(=O)N(C)C[C@@H]1Oc2ccc(NC(=O)CCCN(C)C)cc2C(=O)N([C@H](C)CO)C[C@@H]1C | 15.3 | 3.0
C[C@H](CO)N1C[C@H](C)[C@H](CN(C)C(=O)Nc2ccc3c(c2)OCO3)Oc2ncc(-c3cccnc3)cc2C1=O | 17.0 | 14.4
O=C([C@@H]1[C@@H](CO)[C@@H]2Cn3c(cccc3=O)[C@@H]2N1CC1CCCC1)N1CCc2ccccc2C1 | 9.1 | 12.1
CCC(=O)Nc1ccc2c(c1)OC[C@@H](C)N(Cc1cccnc1)C[C@H](C)[C@@H](OC)CN(C)C2=O | 0.6 | 7.4
C[C@H](O)C#Cc1cnc2c(c1)C(=O)N([C@@H](C)CO)C[C@H](C)[C@H](CN(C)C(=O)c1ccncc1)O2 | 24.7 | 11.1
C[C@@H]1CN([C@H](C)CO)C(=O)c2cccc(NS(=O)(=O)c3ccc(Cl)cc3)c2O[C@@H]1CN(C)Cc1ccc(Cl)c(Cl)c1 | -14.5 | -10.1
CC(C)C#Cc1ccc([C@@H]2[C@@H](CO)N3C(=O)CN(C(=O)C4CCCCC4)C[C@H]23)cc1 | -20.4 | -30.3

Not all compounds are listed (hit frequency here may not be typical).
